KCNQ2 enhance = KCNQ2 (rat) channel potentiation | B-score at 10 µM | CHO-K1 KCNQ2, FluxOR thallium flux fluorescence; hits give high values | hit rate 0.54% among 310,000 | O88943;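 active = fluorescence ratio B-score at least 3 SD of library B-scores, with initial fluorescence B-score within 3 SD, cut at about 5.3 in these data; same plate scores as AID 2156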;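 also: B-score of peak minus minimum over baseline fluorescence ratio after K+ and Tl+ stimulus; positive B-score means potentiation of KCNQ2 with more thallium influx and brighter signal; only the inactives scoring about 0 or higher are listed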
Target sequence (O88943 whole entry, looked up): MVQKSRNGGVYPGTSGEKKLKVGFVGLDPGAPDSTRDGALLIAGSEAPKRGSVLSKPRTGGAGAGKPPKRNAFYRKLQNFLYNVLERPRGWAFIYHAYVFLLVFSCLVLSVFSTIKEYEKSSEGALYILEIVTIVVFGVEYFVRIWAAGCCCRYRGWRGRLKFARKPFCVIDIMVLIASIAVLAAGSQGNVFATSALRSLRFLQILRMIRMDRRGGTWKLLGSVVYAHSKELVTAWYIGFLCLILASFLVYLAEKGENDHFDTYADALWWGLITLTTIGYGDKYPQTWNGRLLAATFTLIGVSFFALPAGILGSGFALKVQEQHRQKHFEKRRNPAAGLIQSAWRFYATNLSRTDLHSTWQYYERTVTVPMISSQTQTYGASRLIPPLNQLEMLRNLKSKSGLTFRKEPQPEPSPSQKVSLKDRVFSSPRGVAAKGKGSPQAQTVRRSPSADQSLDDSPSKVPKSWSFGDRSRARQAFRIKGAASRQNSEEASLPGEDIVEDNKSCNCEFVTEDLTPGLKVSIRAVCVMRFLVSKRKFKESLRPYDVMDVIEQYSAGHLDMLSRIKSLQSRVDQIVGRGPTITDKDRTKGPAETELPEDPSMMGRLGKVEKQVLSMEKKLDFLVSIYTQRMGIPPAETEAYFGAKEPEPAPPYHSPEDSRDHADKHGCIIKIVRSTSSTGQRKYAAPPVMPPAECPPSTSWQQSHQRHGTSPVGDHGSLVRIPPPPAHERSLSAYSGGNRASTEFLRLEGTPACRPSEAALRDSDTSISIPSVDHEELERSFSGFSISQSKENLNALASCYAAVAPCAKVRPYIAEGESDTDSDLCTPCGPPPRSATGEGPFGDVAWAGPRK
KCNQ2 enhance baseline = also measured in KCNQ2 enhance; calls as there; B-score; compound at 10 µM; measured here: initial fluorescence intensity artifact check;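 brightness before thallium and not channel activity; 0 = typical well and far values either way flag optical interference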
* hit, by the source's call. These rows are one share of the data; count on the stated rates, not on these rows.

SMILES	KCNQ2 enhance	KCNQ2 enhance baseline
O=C(C1CC(=O)N(C2CCCCCCC2)C1)N1CCC2(CC1)OCCO2 (stereo not given)	0.06	0.34
Cc1nn(Cc2ccccc2Cl)c(C)c1C(=O)OCC(=O)N1CC(C)OC(C)C1 (stereo not given)	0.31	1.7
Cc1c(N)c(C)c([N+](=O)[O-])c(C)c1[N+](=O)[O-]	1.8	2.4
CCC(=O)N1CC(=O)Nc2ccc(F)cc2C1c1ccc(F)cc1 (stereo not given)	0.14	1.3
O=C1N(c2cccc(Cl)c2)C(c2cccnc2)N2CCCN12 (stereo not given)	0.51	-0.02
CN(C)C(=O)Oc1ccc(Cl)c2cccnc12	0.43	-0.81
Cc1c(C=O)c2ccccc2n1Cc1cccc(F)c1	0.72	-0.07
O=C(O)c1ccc(-n2c(O)c(/C=C3\C=Nc4ccccc43)c(=O)[nH]c2=O)cc1	0.82	-0.45
CCc1c(C)nc(N)nc1N1N=C1SCC(N)=O	1.2	-1.1
Cc1cc(NCCN)nc2ccccc12	0.21	0.08
Cc1nn(CC(=O)N2CCC3(CC2)OCCO3)c(=O)c2cc3ccccc3n12	2.2	-1.6
C/C(=N\NC(=O)c1ccncc1)c1c(O)[nH]c(=O)[nH]c1=O	0.27	1.5
COc1cc(NC(=O)CN2C3CCC2CC(O)(c2cccnc2)C3)cc(OC)c1 (stereo not given)	0.03	-0.46
Cn1cccc1/C=C1/C(=O)NC(=O)N(C(C)(C)C)C1=O	1.4	0.75
COC(=O)C(O)(c1ccc(N(C)C(=O)OC(C)C)cc1)C(F)(F)F (stereo not given)	1.4	-1.3
CC(C)CNP(=S)(c1ccccc1)C(C)(C)C (stereo not given)	1.4	0.26
O=c1[nH]c(=O)n(Cc2ccco2)c(O)c1C=NCCN1CCOCC1	0.04	1.2
COC(=O)C1=C(c2ccc(S(C)(=O)=O)cc2)C[C@@H]2CC[C@H]1N2C(=O)N1CCCCC1	0.36	2.7
COP(=O)(OC)C(NC(=O)/C=C/c1ccccc1)C(Cl)(Cl)Cl (stereo not given)	0.03	0.93
COc1cccc(-c2nn(Cc3ccccc3)cc2C(=O)O)c1	0.32	0.02
O=C(Cc1ccccc1)Oc1cccc(-n2cnnn2)c1	0.08	-1.4
CN1CCC(N2CC3CC(C2)c2cccc(=O)n2C3)CC1 (stereo not given)	0.43	-0.02
CN(C)c1ccc(/C=C/C=C2/C(=O)NC(=O)N(c3ccccc3)C2=O)cc1	1	-2.2
CCOP(=O)(OCC)C(O)c1ccc2c(c1)OCO2 (stereo not given)	0.55	-0.57
CCc1cc2c(s1)N(CC(=O)OC)C(=O)CN=C2c1ccccc1OC	0.94	0
C[C@@H]1O[C@@H](O[C@H]2C[C@@H](O)[C@]3(CO)[C@H]4[C@H](O)C[C@]5(C)[C@@H](C6COC(=O)C6)CC[C@]5(O)[C@@H]4CC[C@]3(O)C2)[C@H](O)[C@H](O)[C@H]1O (stereo not given in full)	0.96	-0.18
CCCC(C)n1[nH]c(=O)c2c1NC(=O)CSC2c1ccc(OC)cc1 (stereo not given)	0.04	0.1
Cc1cccc(-n2c(O)c(C=NC34CN5CN(CN(C5)C3)C4)c(=O)[nH]c2=O)c1	0.29	-0.14
Clc1ccc(C2N3CCCN23)c(Cl)c1 (stereo not given)	0.26	2.1
CC1CCCN(c2ccc(C(=O)N3CCC4(CC3)OCCO4)cc2[N+](=O)[O-])C1 (stereo not given)	0.52	-0.27

A draw from above in order of molar mass, highest first:
SMILES	KCNQ2 enhance	KCNQ2 enhance baseline
CC1CCCN(c2ccc(C(=O)N3CCC4(CC3)OCCO4)cc2[N+](=O)[O-])C1 (stereo not given)	0.52	-0.27
CCCC(C)n1[nH]c(=O)c2c1NC(=O)CSC2c1ccc(OC)cc1 (stereo not given)	0.04	0.1
CN(C)C(=O)Oc1ccc(Cl)c2cccnc12	0.43	-0.81

Other entries:
SMILES	KCNQ2 enhance	KCNQ2 enhance baseline
Cc1cccc(C(O)(C(=O)NNC(=O)CN2CCN(C)CC2)c2cccc(C)c2)c1	0.24	-0.18
CN(C)C(CNC(=O)Cc1ccc(Br)cc1)c1ccccc1 (stereo not given)	1.2	-1.6
COc1ccc(-n2c(-c3ccco3)nc3ccccc3c2=O)cc1	0.14	-0.64
CC12CC[C@H]3[C@@H](CCC4(O)C[C@H](O)CCC34/C=N/NC(=O)c3ccccc3F)C1(O)CCC2C1=CC(=O)OC1 (stereo not given in full)	0.14	0.08
O=C(c1cc(=O)[nH]c2ccc(Br)cc12)N1CCC2(CC1)OCCO2	0.33	2.7
C=CCn1c(O)c(C(CC)=NC2CC2)c(=O)[nH]c1=O	0.8	0.52
Cc1ccc(-n2c(O)c(C=NCc3ccccn3)c(=O)[nH]c2=S)cc1	1.2	-0.56
Cc1cc(S(=O)(=O)NCc2ccccc2)ccc1OCC(=O)N1CCN(C)CC1	0.42	0.43
O=Cc1cn(Cc2ccccc2[N+](=O)[O-])c2ccccc12	1	-1.7
Cc1ccc(NC(=O)[C@@H](NC(=O)N2C[C@H]3C[C@@H](C2)c2cccc(=O)n2C3)C(C)C)cc1	1.5	-0.05
CC(O)CNc1ccc([N+](=O)[O-])c2cccnc12 (stereo not given)	0.66	-0.05
COc1ccc(C(=O)N2CCOCC2)cc1S(=O)(=O)N1CCC(C)CC1	1.3	-1.6
Clc1ccc(NC2=NCCCS2)cc1Cl	1.2	1.2
COC(=O)C1=C(c2ccc(S(C)(=O)=O)cc2)C[C@@H]2CC[C@H]1N2C(=O)NCCNC(C)=O	0.12	1.5
COc1ccc(CCN)cc1O	0.03	0.4
Cc1cc(C=O)c(C)n1CC1CCCO1 (stereo not given)	0.55	-1.1
COC(=O)c1cc2c(s1)=NC=NP=2(N1CCOCC1)N1CCOCC1	0.84	-0.72
Cc1nc2ccccc2c(=O)n1-c1cc([N+](=O)[O-])cc([N+](=O)[O-])c1	0.08	0.28
CN(C)C1=NC(N(C)C)=NP(N(C)C)(N(C)C)=N1	0.02	1.8
CCN1CCN(C(=O)COc2ccc(S(=O)(=O)Nc3ccc(Cl)cc3)cc2)CC1	0.18	-0.09
Cc1ccc(CNC2=NCCS2)cc1	0.67	-0.07
COc1ccc(-c2nn(CCC#N)cc2C(=O)Nc2ccccc2Cl)cc1	0.56	-2.3
O=C(Cc1cccs1)N1CCC2(CC1)OCCO2	1.1	-1.1
CCN(CC)C(=O)COc1cc(C)cc2oc(=O)c3c(c12)CCCC3	0.02	0.01
COc1ccc(C(=O)OC2CC[C@@]3(C)C4CCC5[C@]6(O)CC(O)[C@@]7(O)C(CN8CC(C)CCC8[C@@]7(C)O)[C@]6(O)C[C@@]53O[C@]24O)cc1OC (stereo not given in full)	4.2	-0.82
Cc1cc(NC(=O)COC(=O)c2c(C)nn(Cc3ccccc3Cl)c2Cl)no1	0.37	0.02
CCSc1nnc([C@@H](N)Cc2ccccc2)o1	1.7	0.03
CC/C(=N\NC(=O)c1ccccc1O)c1c(O)n(C2CCCCC2)c(=O)[nH]c1=O	1.1	0.15
Cc1cc(CN(C)C)c(OC(=O)N(C)C)cc1C	2.2	0.49
COC(=O)C1=C(c2ccc(S(C)(=O)=O)cc2)C[C@@H]2CC[C@H]1N2C(=O)NC(C)C	0.37	0.45

Grouped by structure: those above with a COOH group.
SMILES	KCNQ2 enhance	KCNQ2 enhance baseline
O=C(O)c1ccc(-n2c(O)c(/C=C3\C=Nc4ccccc43)c(=O)[nH]c2=O)cc1	0.82	-0.45
COc1cccc(-c2nn(Cc3ccccc3)cc2C(=O)O)c1	0.32	0.02

Record cards (already shown):
CCN(CC)C(=O)COc1cc(C)cc2oc(=O)c3c(c12)CCCC3 in the list: KCNQ2 enhance: 0.02; KCNQ2 enhance baseline: 0.01
O=C(Cc1cccs1)N1CCC2(CC1)OCCO2 in the list: KCNQ2 enhance: 1.1; KCNQ2 enhance baseline: -1.1

Continuation.
SMILES	KCNQ2 enhance	KCNQ2 enhance baseline
Cn1cc(NC(=O)CCl)cn1	0.02	7.3
CCN(C(=O)Oc1ccccc1)c1ccc(C(O)(C(=O)OC)C(F)(F)F)cc1 (stereo not given)	0.03	-0.18
CNC(=O)Oc1cccc2ccccc12	0.83	-0.03
O=c1cccc2n1C[C@H]1C[C@@H]2CN2CCCC[C@@H]12	0.11	-1.8
CCOc1ccc(CN2CCCC(C(=O)c3ccccc3OC)C2)cc1 (stereo not given)	0.02	0.75
CC(=O)N1N=C(c2c(O)n(C)c(=O)n(C)c2=O)CC1c1ccccc1 (stereo not given)	0.22	0.78
CN(C)C1=NP(N(C)C)(N(C)C)=NC(c2ccccc2)=N1	0.4	0.02
COC(=O)CC(=O)c1ccc2c(c1)OCO2	0.76	1.2
O=C(c1ccc(-c2ccccc2)cc1)C1CCCN(Cc2ccn[nH]2)C1 (stereo not given)	1.5	-0.97
CCOC(=O)CC1=C(C(=O)OCC)C2(C(=O)N1)C(C(=O)OC)=C(N)Oc1ccccc12 (stereo not given)	0.39	-1.2
Cc1cccc(OCC(=O)N2CCN(Cc3ccc([N+](=O)[O-])cc3)CC2)c1	0.27	0.06
CN1CCN(c2ccccc2N)CC1	1.4	-0.39
COc1ccccc1CN1CCN(Cc2ccc(Cl)cc2)CC1	0.88	-1.3
OC1/C(=C/c2ccc(C(F)(F)F)cc2)N2CCC1CC2 (stereo not given)	0.69	1.1
COCc1cc(OC(=O)N(C)C)nc2c1c(C)nn2C	0.04	-0.07

(further entries)
Every second line gives: KCNQ2 enhance	KCNQ2 enhance baseline
> COc1cc(/C=C/c2nc3ccccc3c(=O)n2-c2ccccc2O)ccc1O
→ 1.2	1.1
> Cc1c(C(c2ccc(F)cc2)c2c(O)c3ccccc3oc2=O)c(=O)n(-c2ccccc2)n1C (stereo not given)
→ 0.73	-1.4
> C/C1=C\[C@@H](C)C/C=C/[C@H]2[C@@H]3O[C@]3(C)[C@@H](C)[C@H]3[C@H](Cc4c[nH]c5ccccc45)NC(=O)[C@]32C(=O)/C=C/C(=O)[C@@H]1O
→ 8.3*	-0.88*
> CC(C)(C)C(=O)c1cn(Cc2ccccc2)c2ccccc12
→ 0.19	0.86
> O=C(COc1ccc(Cl)cc1)N(c1ccc(Cl)cc1)C1CN2CCC1CC2 (stereo not given)
→ 0.98	0.93
> CCN(CC)S(=O)(=O)c1ccc(C(=O)NC2CN3CCC2CC3)cc1 (stereo not given)
→ 0.65	-1.8
> COC(=O)C1=C(c2cc3ccccc3s2)C[C@@H]2CC[C@H]1N2C(=O)NCCO
→ 0.04	1
> COC(=O)C1C2c3ccccc3OC1(C)N=c1s/c(=C/c3cn(C)nc3C)c(=O)n12 (stereo not given)
→ 3.8	-0.64
> COc1ccc(N2CCN(CCc3ccncc3)CC2)cc1
→ 0.66	-0.8
> Cc1ccc(NC(=O)c2snnc2C)cc1Cl
→ 0.83	-0.34
> O=[N+]([O-])c1cnc2ccc3ccccc3c2c1
→ 0.01	0.14
> Cc1ccc(/C=C2/Sc3ccc(C(=O)N4CCC5(CC4)OCCO5)cc3NC2=O)cc1
→ 0.55	1.6
> c1ccc2c3c([nH]c2c1)CNCC3
→ 0.01	1.7
> CCCCCCOC(=O)c1ccccc1N
→ 0.04	-1.3
> CC1SC2(CN3CCC2CC3)NC1=O (stereo not given)
→ 0.65	1.1
> Cc1cc(C)c(NC2=NCCCS2)c(C)c1
→ 1.6	-0.11
> CCC(=NCc1ccc2c(c1)OCO2)c1c(O)n(C)c(=O)n(C)c1=O
→ 0.28	-0.49
> CC(Cc1ccccc1)NC(N)=O (stereo not given)
→ 1.2	0.44
> CCOP(=O)(OCC)c1cc(C)c(O)c(C(C)(C)C)c1
→ 0.82	-1.9
> CCC(C)N1C(=O)/C(=C\c2ccc(N3CCCCCC3)cc2)C(=O)NC1=S (stereo not given)
→ 1.1	-2

As entered above:
KCNQ2 enhance baseline, `Cc1ccc(NC(=O)c2snnc2C)cc1Cl` is entered as -0.34
KCNQ2 enhance baseline, `O=[N+]([O-])c1cnc2ccc3ccccc3c2c1` is entered as 0.14
KCNQ2 enhance, `CCCCCCOC(=O)c1ccccc1N` is entered as 0.04

The results go on:
Every second line gives: KCNQ2 enhance	KCNQ2 enhance baseline
> C=CCN1C(=O)/C(=C/c2cc(C)n(-c3ccccn3)c2C)C(=O)NC1=S
→ 0.09	-1.7
> ClC1=CCC2CN(CCN3CCCCC3)CC2C1 (stereo not given)
→ 1.6	0.22
> COC(=O)C1=C(c2cccc(OC)c2OC)C[C@@H]2CC[C@H]1N2C(=O)NCCCOC(C)C
→ 0.9	1.1
> C[C@]12C=CC(=O)C=C1CC[C@@H]1C2CC[C@]2(C)OC(=O)CCC12 (stereo not given in full)
→ 0.62	-0.1
> O=[N+]([O-])c1cc(F)c(N2CCCCC2)cc1Br
→ 0.19	-1.7
> O=C(O)c1sc2cc(Cl)ccc2c1Cl
→ 0.06	-1.1
> CCCCCCNC(=O)N[C@@H](Cc1ccc(O)cc1)C(=O)NCCC[C@H]1CN2C(=NC[C@H]2C)N1CC1CCC1
→ 0.46	-2
> CC(NC1=NCCS1)c1ccccc1 (stereo not given)
→ 0.18	-0.24
> N#CC(C#N)=C(C#N)c1ccc(Nc2ccccc2)cc1
→ 1	0.13
> CCCCn1c(O)c(C=NC2CC3CCC2(C)C3(C)C)c(=O)[nH]c1=O (stereo not given)
→ 0.79	-1.4
> COc1cc2c(c(OC)c1OC)-c1ccc(O)c(=O)cc1C(NC(C)=O)CC2 (stereo not given)
→ 0.45	1.2

Assay outcomes (PubChem BioAssay)
